AF4-AF9 inh: MLL-AF4/AF9 protein interaction inhibition. P42568. AlphaScreen, biotin-AF4 peptide binding to FLAG-AF9. inhibition, % at 10 µM. 350,000 tested, 0.47% active. AID 651704;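 active = every replicate reaching a set inhibition limit, whatever the replicate mean, cut at about 25% in these data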;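 also: 0% = plate neutral control median and 100% = total signal loss; the record names both 10 and 1 µM as test concentration; the first replicate is given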
Target sequence (P42568 whole entry, looked up): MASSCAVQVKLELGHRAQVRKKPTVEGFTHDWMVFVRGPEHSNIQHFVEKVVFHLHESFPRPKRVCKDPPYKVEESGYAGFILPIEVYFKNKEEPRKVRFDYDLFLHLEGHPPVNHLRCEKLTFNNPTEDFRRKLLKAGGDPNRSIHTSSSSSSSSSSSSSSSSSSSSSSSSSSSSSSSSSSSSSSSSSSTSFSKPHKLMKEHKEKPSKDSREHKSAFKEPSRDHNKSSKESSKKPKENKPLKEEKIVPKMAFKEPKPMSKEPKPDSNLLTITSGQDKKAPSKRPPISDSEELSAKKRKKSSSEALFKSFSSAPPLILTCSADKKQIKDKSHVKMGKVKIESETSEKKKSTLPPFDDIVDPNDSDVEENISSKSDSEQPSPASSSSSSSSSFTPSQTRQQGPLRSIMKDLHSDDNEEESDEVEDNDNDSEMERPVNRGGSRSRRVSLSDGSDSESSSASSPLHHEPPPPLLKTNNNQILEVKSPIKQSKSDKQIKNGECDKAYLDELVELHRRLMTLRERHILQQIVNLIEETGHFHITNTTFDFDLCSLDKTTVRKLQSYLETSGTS
Starred values were filed as active, the others as inactive.

Start of the data: the first 11 entries (preview)
SMILES | AF4-AF9 inh
COCC(=O)N1CC2(C1)CN(S(C)(=O)=O)[C@@H](CO)c1c2c2ccc(OC)cc2n1C | -8.0
C/C=C/c1ccc([C@H]2[C@@H](CO)N(C(C)=O)[C@@H]2CN(CC(C)C)C(=O)CC)cc1 | 0.1
C[C@H]1CCCCO[C@H](CN(C)C(=O)Nc2ccccc2)[C@@H](C)CN([C@@H](C)CO)C(=O)c2cc(NC(=O)Nc3ccc(F)cc3)ccc2O1 | 1.8
C[C@H](CO)N1C[C@H](C)[C@@H](CN(C)C(=O)CC2CC2)Oc2cc(-c3ccncc3)ccc2S1(=O)=O | 0.3
C[C@H](CO)N1C[C@H](C)[C@@H](CN(C)S(=O)(=O)c2ccc(Cl)cc2)Oc2ccc(NC(=O)Nc3ccccc3)cc2CC1=O | 2.2
CN(C)C(=O)c1cccc(-c2ccccc2[C@H]2[C@@H](C#N)N(C(=O)C3CCC3)[C@H]2CO)c1 | -0.3
C[C@@H]1CN([C@@H](C)CO)C(=O)c2cccc(NS(=O)(=O)c3cccs3)c2O[C@@H]1CN(C)S(=O)(=O)c1ccccc1 | 0.0
O=C1NC[C@H](Cc2ccc(O)cc2)N(C[C@@H]2CCCN2C[C@H](Cc2ccc(O)cc2)N2C[C@H](Cc3ccccc3)N(CCc3ccccc3)C(=O)C2=O)C1=O | -14
COc1ccc(-c2coc3c(C(=O)NCCc4ccccc4)cccc23)c(C)c1 | 0.6
CC(N)c1csc(Nc2ncccn2)n1 (stereo not given) | -5.4
C[C@H]1CCCCO[C@@H](CN(C)C)[C@@H](C)CN([C@@H](C)CO)C(=O)c2cc(NC(=O)Nc3cccc4ccccc34)ccc2O1 | 1.7

The list itself, repeating the preview:
SMILES | AF4-AF9 inh
COCC(=O)N1CC2(C1)CN(S(C)(=O)=O)[C@@H](CO)c1c2c2ccc(OC)cc2n1C | -8.0
C/C=C/c1ccc([C@H]2[C@@H](CO)N(C(C)=O)[C@@H]2CN(CC(C)C)C(=O)CC)cc1 | 0.1
C[C@H]1CCCCO[C@H](CN(C)C(=O)Nc2ccccc2)[C@@H](C)CN([C@@H](C)CO)C(=O)c2cc(NC(=O)Nc3ccc(F)cc3)ccc2O1 | 1.8
C[C@H](CO)N1C[C@H](C)[C@@H](CN(C)C(=O)CC2CC2)Oc2cc(-c3ccncc3)ccc2S1(=O)=O | 0.3
C[C@H](CO)N1C[C@H](C)[C@@H](CN(C)S(=O)(=O)c2ccc(Cl)cc2)Oc2ccc(NC(=O)Nc3ccccc3)cc2CC1=O | 2.2
CN(C)C(=O)c1cccc(-c2ccccc2[C@H]2[C@@H](C#N)N(C(=O)C3CCC3)[C@H]2CO)c1 | -0.3
C[C@@H]1CN([C@@H](C)CO)C(=O)c2cccc(NS(=O)(=O)c3cccs3)c2O[C@@H]1CN(C)S(=O)(=O)c1ccccc1 | 0.0
O=C1NC[C@H](Cc2ccc(O)cc2)N(C[C@@H]2CCCN2C[C@H](Cc2ccc(O)cc2)N2C[C@H](Cc3ccccc3)N(CCc3ccccc3)C(=O)C2=O)C1=O | -14
COc1ccc(-c2coc3c(C(=O)NCCc4ccccc4)cccc23)c(C)c1 | 0.6
CC(N)c1csc(Nc2ncccn2)n1 (stereo not given) | -5.4
C[C@H]1CCCCO[C@@H](CN(C)C)[C@@H](C)CN([C@@H](C)CO)C(=O)c2cc(NC(=O)Nc3cccc4ccccc34)ccc2O1 | 1.7
O=C(C[C@H]1CC[C@H](NC(=O)C2CC2)[C@@H](CO)O1)NCCCN1CCOCC1 | -1.7
Cc1c(C(=O)NCc2ccc3c(c2)OCCO3)sc(=O)n1Cc1ccc(C(=O)N(C)C)cc1 | 4.4
COC(=O)[C@@H]1[C@@H](CO)[C@@H]2Cn3c(ccc(C4=CCCC4)c3=O)[C@@H]2N1Cc1cncnc1 | 0.8
CC(C)C#Cc1ccc2c(c1)O[C@H](CN(C)C(=O)c1cnccn1)[C@H](C)CN([C@@H](C)CO)S2(=O)=O | -1.6
C[C@H](CO)N1C[C@H](C)[C@H](CN(C)Cc2ccc(C(=O)O)cc2)OCCCC[C@H](C)Oc2ccc(NC(=O)CCC(F)(F)F)cc2C1=O | -1.6
O=C([C@@H]1[C@@H](CO)[C@@H]2Cn3c(cccc3=O)[C@H]1N2Cc1cocn1)N1CCCCC1 | 0.6
C[C@H]1CN([C@@H](C)CO)C(=O)Cc2cc(NS(=O)(=O)c3cccs3)ccc2O[C@H]1CN(C)C(=O)Nc1ccc(F)cc1 | 0.3
COc1ccc(-c2cnc(C(O)c3ccccc3)[nH]2)cc1 (stereo not given) | 3.6
CNC[C@H]1Oc2ccc(NC(=O)Nc3ccc4c(c3)OCO4)cc2C(=O)N([C@@H](C)CO)C[C@@H]1C | -1.2
COc1cccc(C(=O)Nc2ccc3c(c2)C(=O)N(C)C[C@@H](OC)[C@@H](C)CN(C)[C@H](C)CO3)c1 | -0.8
C[C@@H]1CN([C@H](C)CO)C(=O)Cc2cc(NC(=O)Nc3ccc4c(c3)OCO4)ccc2O[C@@H]1CN(C)Cc1ccc(C(=O)Nc2ccccc2N)cc1 | 0.4
O=C(Nc1nnc([C@@H]2C[C@H](O)[C@@H](CO)O2)s1)c1cccc(OC(F)(F)F)c1 | 1.5
COCC#Cc1cnc2c(c1)C(=O)N([C@H](C)CO)C[C@H](C)[C@@H](CN(C)Cc1ccc(F)cc1)O2 | 0.1
C[C@H](CO)N1C[C@H](C)[C@H](CN(C)S(=O)(=O)c2ccc(F)cc2)Oc2ccc(NS(=O)(=O)c3cccs3)cc2CC1=O | -3.6
CO[C@@H]1CC[C@@H]2CCOc3ccc(C#N)cc3C(=O)N(C)C[C@H](C)C(=O)N(C)C[C@H]1O2 | 0.4
C[C@H](CO)N1C[C@H](C)[C@H](CN(C)C(=O)Nc2ccc(F)cc2)Oc2cc(-c3ccncc3)ccc2S1(=O)=O | -1.3
O=S(=O)(c1ccccc1)N1CCCCN2[C@H](CO)[C@H](c3ccc(-c4ccccc4F)cc3)[C@H]2C1 | 0.6
CCCCNC(=O)C[C@@H]1C[C@@]2(C(=O)OCC)CCCC=C2N(Cc2ccccc2)C1=O | -0.8
C[C@H]1CN([C@@H](C)CO)C(=O)Cc2cc(NC(=O)Cc3ccccc3)ccc2O[C@H]1CN(C)S(=O)(=O)c1ccccc1 | 0.9
CCCN1[C@@H]2Cn3c(ccc(-c4ccncc4)c3=O)[C@H]1[C@@H](C(=O)NCCc1cn(C)cn1)[C@@H]2CO | -0.4
O=C(NCc1cccc(F)c1)[C@@H]1[C@@H](CO)[C@@H]2Cn3c(ccc(-c4cccnc4)c3=O)[C@H]1N2CC1CC1 | 3.2
CC(C)NC(=O)Nc1ccc2c(c1)C(=O)N([C@H](C)CO)C[C@H](C)[C@H](CN(C)Cc1ccc(Cl)c(Cl)c1)OCCCC[C@@H](C)O2 | 3.8
COc1ccc(S(=O)(=O)Nc2cccc3c2O[C@@H](CN(C)S(C)(=O)=O)[C@@H](C)CN([C@H](C)CO)C3=O)cc1 | -3.4
NC(=O)[C@H]1[C@@H]2C(=O)O[C@@H](c3ccccc3)[C@@H](c3ccccc3)N2[C@@H](c2ccccc2OCCO)[C@]12C(=O)Nc1ccccc12 | 15
Cc1ccc(S(=O)(=O)Nc2ccc3c(c2)C(=O)N([C@@H](C)CO)C[C@H](C)[C@@H](CN(C)C(=O)Nc2cccc4ccccc24)O3)cc1 | 2.8
COc1cc2c(cc1O)C=[N+](Cc1cccc(OC(F)(F)F)c1)CC2 | 1.4
C[C@@H]1CN([C@H](C)CO)C(=O)Cc2cc(NC(=O)Cc3ccccc3)ccc2O[C@H]1CN(C)S(=O)(=O)c1ccc(F)cc1 | -1.8
O=C(NC1CCCCC1)N1CC(=O)N2[C@H](C1)[C@H](c1ccc(-c3ccccc3)cc1)[C@@H]2CO | -2.1
Cc1noc(C)c1NC(=O)Nc1ccc2c(c1)CC(=O)N([C@@H](C)CO)C[C@@H](C)[C@@H](CN(C)C(=O)Nc1ccc3c(c1)OCO3)O2 | -1.0
CC(=O)N1CC[C@H]2[C@H](CO)Nc3ccc(C#Cc4ccccc4F)cc3[C@H]21 | 4.4
O=C(C[C@H]1CC[C@H]2[C@@H](COC[C@H](O)CN2C(=O)c2ccncc2)O1)Nc1ccc(-c2ccccc2)cc1 | 1.8
CO[C@@H]1CN(C)C(=O)c2cc(NC(C)=O)ccc2OC[C@H](C)N(C(=O)c2ccc(F)cc2)C[C@H]1C | 0.7
COc1ccc(C#Cc2ccc3c(c2)O[C@@H](CN(C)C(=O)c2ccccn2)[C@H](C)CN([C@@H](C)CO)S3(=O)=O)cc1 | -8.2
CCCCC1Cc2[nH]c(=S)[nH]c(=O)c2C(c2cccc3ccccc23)O1 (stereo not given) | 0.7
CCCNC(=O)Nc1ccc2c(c1)OC[C@H](C)N(C(=O)c1ccccc1F)C[C@H](C)[C@@H](OC)CN(C)C2=O | -0.8
Cc1ccccc1S(=O)(=O)N1CCCCN2[C@@H](CO)[C@@H](c3ccc(C#CCN(C)C)cc3)[C@@H]2C1 | 0.1
C/C=C/c1cccc(-c2nc(C(=O)Nc3nccs3)cc3c2[C@@H](CCO)N(C(=O)NC(C)C)C3)c1 | -13
Cc1noc(C)c1S(=O)(=O)N(C)C[C@H]1Oc2ccc(NC(=O)Cn3cnnn3)cc2CC(=O)N([C@@H](C)CO)C[C@@H]1C | -0.8
COc1ccc(NC(=O)Nc2cccc3c2O[C@H](CN(C)Cc2ccc(Oc4ccccc4)cc2)[C@H](C)CN([C@@H](C)CO)C3=O)cc1 | 3.0
C[C@@H]1CN([C@H](C)CO)C(=O)c2cc(NS(=O)(=O)c3cn(C)cn3)ccc2O[C@@H]1CN(C)C(=O)NC1CCCCC1 | -3.2
Cc1ccc(S(=O)(=O)Nc2ccc3c(c2)C(=O)N([C@@H](C)CO)C[C@@H](C)[C@H](CN(C)C(=O)CCC(F)(F)F)OCCCC[C@@H](C)O3)cc1 | -1.6
COc1ccc(CCN2C(=O)c3ccccc3C2c2nnnn2Cc2ccccc2)cc1OC (stereo not given) | -1.0
COc1ccc(NC(=O)Nc2ccc3c(c2)C(=O)N([C@@H](C)CO)C[C@H](C)[C@H](CN(C)C(=O)c2ccccc2)OCCCC[C@@H](C)O3)cc1 | -3.4
C[C@@H]1CCCCO[C@H](CN(C)S(=O)(=O)c2ccccc2)[C@@H](C)CN([C@H](C)CO)C(=O)c2cc(NC(=O)c3ccncc3)ccc2O1 | -0.5
COc1cccc(C(=O)Nc2ccc3c(c2)C(=O)N(C)C[C@@H](OC)[C@@H](C)CN(C(=O)C2CCCC2)[C@H](C)CO3)c1 | -7.6
Cc1noc(C)c1S(=O)(=O)N(C)C[C@@H]1Oc2ccc(NC(=O)CCCN(C)C)cc2C(=O)N([C@@H](C)CO)C[C@@H]1C | -0.1
Cc1cc(C(=O)Nc2cccc3c2O[C@@H](CN(C)CC2CC2)[C@H](C)CN([C@@H](C)CO)C3=O)n(C)n1 | -2.4
CN1CCN(C(=O)C[C@H]2CC[C@@H](NS(=O)(=O)c3cccc(F)c3)[C@H](CO)O2)CC1 | -0.6
C[C@H](CO)N1C[C@H](C)[C@H](CN(C)Cc2ccc(C(=O)O)cc2)Oc2c(NS(=O)(=O)c3cn(C)cn3)cccc2C1=O | -2.3
(next part)
SMILES | AF4-AF9 inh
C[C@H]1CN([C@@H](C)CO)C(=O)c2cccc(NC(=O)C3CCCCC3)c2O[C@@H]1CN(C)CC1CC1 | 1.0
C[C@H]1CN([C@@H](C)CO)C(=O)c2cccc(NS(=O)(=O)c3cccs3)c2O[C@@H]1CN(C)S(=O)(=O)c1ccc(F)cc1 | -0.9
C[C@H]1CCCCO[C@H](CN(C)S(=O)(=O)c2cn(C)cn2)[C@@H](C)CN([C@@H](C)CO)C(=O)c2cc(NC(=O)C3CCCCC3)ccc2O1 | -0.3
COC(=O)C[C@@H]1C[C@H]2c3cc(NS(=O)(=O)c4ccc(F)cc4)ccc3O[C@H]2[C@@H](CO)O1 | 3.5
CCCNC(=O)N(C)C[C@@H]1Oc2ncc(-c3cccc(C#N)c3)cc2C(=O)N([C@@H](C)CO)C[C@H]1C | -1.9
COc1ccc(NC(=O)O[C@H]2[C@H](OC(=O)Nc3ccc4c(c3)OCO4)[C@H](OC(=O)Nc3ccc4c(c3)OCO4)[C@@H](OC)O[C@@H]2CO)cc1 | 21
CC(=O)N(C)C[C@@H]1Oc2ncc(C#CCc3ccccc3)cc2C(=O)N([C@H](C)CO)C[C@H]1C | 0.0
CC(C)NC(=O)N(C)C[C@H]1OCCCC[C@@H](C)Oc2ccc(NS(=O)(=O)c3ccc(F)cc3)cc2C(=O)N([C@@H](C)CO)C[C@@H]1C | -0.5
COc1ccc(C(=O)Nc2ccc3c(c2)OC[C@@H](C)N(C(C)=O)C[C@@H](C)[C@@H](OC)CN(C)C3=O)cc1 | 0.8
CCN1[C@@H]2c3cccc(=O)n3C[C@@H]2[C@@H](CO)[C@@H]1C(=O)N1CCc2ccccc2C1 | -0.1
CCOC(=O)N1CCN(C(=O)c2[nH]c(C(F)(F)F)nc2-c2ccccc2)CC1 | 0.3
CCCCNC(=O)C1(C)CCCCN1C(=O)c1ccc2c(c1)CCO2 (stereo not given) | 0.8
S=C1NCCOc2ccccc21 | 4.0
CCCC#Cc1ccc([C@H]2[C@@H](CO)N3CCCCN(C(=O)c4ccc5c(c4)OCO5)C[C@@H]23)cc1 | 5.4
C[C@@H]1CN([C@@H](C)CO)C(=O)c2cc(NC(=O)Cc3ccccc3)ccc2O[C@@H](C)CCCCO[C@@H]1CN(C)C(=O)Nc1ccccc1 | -1.0
CCC(=O)N1CC2(CCN(Cc3ccccc3Cl)CC2)c2c([nH]c3cc(OC)ccc23)[C@@H]1CO | 2.5
CNC[C@H]1Oc2ccc(N(C)C)cc2C(=O)N([C@@H](C)CO)C[C@@H]1C | -13
Cc1cc(C(=O)Nc2cccc3c2O[C@H](CN(C)C(=O)NC2CCCCC2)[C@H](C)CN([C@H](C)CO)C3=O)n(C)n1 | 4.6
CCC(=O)N(C)C[C@@H]1Oc2cc(-c3ccc(OC)cc3)ccc2S(=O)(=O)N([C@@H](C)CO)C[C@@H]1C | -0.6
O=C(CN1CCOCC1)NCC[C@H]1CC[C@H](NC(=O)c2ccccc2F)[C@H](CO)O1 | -3.9

These rows are one share of the data. The share of hits here may be higher or lower than overall.
